Assay outcomes from PubChem.
Lassa entry inh: qHTS for Inhibitors of binding or entry into cells for Lassa Virus; Lassa virus pseudotype entry inhibition, cell reporter; control for the full effect not named in the record; Potency, µM (titrated, usually from 37.9 µM), for inactives: at the top dose activity change, negative = inhibition, hits mostly inhibitors; 1.2% of 300,000 active; active means well fitted inhibition curve with a large enough effect; inconclusive means small, poorly fitted or top-dose-only effect, or effect the other way; inactive means flat fitted curve, though single readings scatter; tested in HEK293 cells; also: % is scaled to controls: 0 for no effect and ±100 for the full control effect; nearly all actives have a fitted effect of over 50% in size; luciferase read-out
Cruzain noTriton: qHTS Assay for Promiscuous and Specific Inhibitors of Cruzain (without detergent); 2.3% of 200,000 active; Cruzipain (Trypanosoma cruzi), P25779; Potency, µM, without a hit: max response, negative = inhibition, actives largely listed as inhibitors; purified cruzain, Z-FR-AMC fluorescence, no detergent;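 also: plate controls were enzyme without inhibitor for no effect and buffer without enzyme for full effect; nearly all actives have a fitted effect of over 40% in size; top concentration of the series not given in the record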
Target sequence (P25779 123-467 limits assumed): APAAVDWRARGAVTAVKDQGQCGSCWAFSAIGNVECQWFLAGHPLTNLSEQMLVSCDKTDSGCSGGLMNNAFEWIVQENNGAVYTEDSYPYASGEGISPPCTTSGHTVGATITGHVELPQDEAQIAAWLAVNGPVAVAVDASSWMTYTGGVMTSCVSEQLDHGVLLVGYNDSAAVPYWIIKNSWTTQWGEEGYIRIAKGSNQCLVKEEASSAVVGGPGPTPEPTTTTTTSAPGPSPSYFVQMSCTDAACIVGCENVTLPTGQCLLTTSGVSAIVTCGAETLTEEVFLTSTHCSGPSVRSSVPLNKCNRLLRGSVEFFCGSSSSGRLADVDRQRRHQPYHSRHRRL
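Detergent-free condition (0.00005% Triton X-100) in acetate buffer pH 5.5 with DTT. 1.5 nM enzyme and compound were pre-mixed 15 min, then 2 uM Z-FR-AMC substrate added; reaction progress from fluorescence change between first and third reads (60 s).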
MARV entry inh: qHTS for inhibitors of binding or entry into cells for Marburg Virus | Marburg virus pseudotyped entry inhibition, cell reporter; control for the full effect not named in the record; about a third of the inactives were read at about 46 µM | Potency, µM (top dose mostly 37.8 µM), for the others: at the top dose activity change, negative = inhibition, actives largely listed as inhibitors | 1.8% of 300,000 active | AID 540276, 2011; active = well fitted inhibition curve with a large enough effect; inconclusive = small, poorly fitted or top-dose-only effect, or effect the other way; inactive = flat fitted curve, though single readings scatter; tested in HEK293 cells; about a fifth of its hits are not listed in these tables; also: % is scaled to controls: 0 for no effect and ±100 for the full control effect; luciferase read-out
RE007 growth inh: qHTS Assay for Inhibitors of the HIV-1 protein Vpr. Potency, µM (top dose mostly 92.2 µM), without a hit: at the highest dose activity change, negative = less growth. S. pombe RE007 Vpr strain, BacTiter-Glo ATP luminescence, 24 h; control for the full effect not named in the record. AID 651644, 2012. 0.21% of 360,000 active; active = well fitted falling curve with a large enough effect; inconclusive = small, poorly fitted or top-dose-only effect; inactive = no such curve, though single readings can be large or run the other way;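 also: % is scaled to controls: 0 for no effect and ±100 for the full control effect; nearly all actives have a fitted effect of over 50% in size; the assay follows cell death caused by Vpr and the record does not say whether a fall means rescue or toxicity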
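Fission yeast strain RE007, carrying one chromosomally integrated HIV-1 vpr copy, was seeded at OD 0.01 in PMG+AL medium with 23 nL pinned compound. After 24 h at 30 °C and 99% humidity, viability was read by BacTiter-Glo luminescence.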
StopGo reporter: High Throughput Screening for Foot and Mouth Disease Virus Antivirals; human cells with a luciferase reporter of 2A StopGo recoding; control for the full effect not named in the record; AID 1159524, 2015; 1.2% of 410,000 active; Potency, µM (highest dose often 57.9 µM), without a hit: top-dose signal change, negative = less light; active = well fitted falling curve with a large enough effect; inconclusive = small, poorly fitted or top-dose-only effect; inactive = no such curve, though single readings can be large or run the other way; tested in HEK293T cells; also: % is scaled to controls: 0 for no effect and ±100 for the full control effect; nearly all actives have a fitted effect of over 45% in size; luciferase light after 4 h
Cruzain Triton: qHTS Assay for Promiscuous and Specific Inhibitors of Cruzain (with detergent); Cruzipain (Trypanosoma cruzi), P25779; AID 1478, 2009; 0.43% of 200,000 active; Potency, µM, without a hit: max response, negative = inhibition, usual class: inhibitors; purified cruzain, Z-FR-AMC fluorescence, 0.01% Triton;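 also: plate controls were neutral wells for no effect and buffer without enzyme for full effect; nearly all actives have a fitted effect of over 40% in size; top concentration of the series not given in the record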
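Compounds were screened in titration against cruzain (1.5 nM) with 0.01% Triton X-100 to counter colloidal aggregation. Activity was the AMC fluorescence increase over 60 s after adding 2 uM Z-FR-AMC at pH 5.5.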
SARS PLpro yeast: qHTS of Yeast-based Assay for SARS-CoV PLP; S. cerevisiae expressing SARS-CoV PLpro, growth rescue; control for the full effect not named in the record; Potency, µM (titrated, usually from 32.9 µM), for inactives: at the highest dose activity, positive = growth rescue; 0.19% of 330,000 active; AID 485353, 2010; active means well fitted rising curve with a large enough effect; inconclusive means small, poorly fitted or top-dose-only effect; inactive means no such curve, though single readings can be large or run the other way; also: 0% is about no effect; nearly all actives have a fitted effect of over 55% in size; growth read by luminescence after 48 h
NS1 function inh: qHTS Assay for Inhibitors of Influenza NS1 Protein Function. 0.4% of 270,000 active. S. cerevisiae slowed by influenza A NS1, growth recovery by OD600. Potency, µM (highest dose often 46.1 µM), without a hit: top-dose activity, positive = more growth. AID 2326, 2010; active means well fitted rising curve with a large enough effect; inconclusive means small, poorly fitted or top-dose-only effect; inactive means no such curve, though single readings can be large or run the other way; also: nearly all actives have a fitted effect of over 50% in size
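S. cerevisiae expressing influenza A NS1, grown in glucose, washed, then diluted 1:100 into pH 6.0 -URA galactose medium with 23 nl compound. Growth recovery read as OD600; NS1-free strain serves as control.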
Numbers without * were called inactive; u = inconclusive; x = no result given; & = joins results of further samples; [ ] = remark or other dose. Unless noted, calls follow the shape of the dose curve; as a rule, active = well fitted curve in the direction sought with a large enough effect; inconclusive = small, poorly fitted or top-dose-only effect, or another doubt; inactive = no such curve, though single readings can be large; an effect the other way counts as inactive or inconclusive. Potency is read from the fitted curve at half-maximal effect.

Below each SMILES: Cruzain noTriton | NS1 function inh | Cruzain Triton | RE007 growth inh | StopGo reporter | SARS PLpro yeast | MARV entry inh | Lassa entry inh
> CC(C)CCNc1nnnc2c1sc1nc(N3CCOCC3)c3c(c12)CC(C)(C)SC3
    18% | 14% | 3.2% | 1% | -28% | -1% | -23% | u
> COc1ccc(CCNc2cc(C)nc3c(-c4ccc(Cl)cc4)c(C)nn23)cc1OC
    15% | 13% | -14% | x | u | -12% | u | -19%
> COc1cc(-c2nc3ccccc3c(=O)n2N)cc(OC)c1OC
    8% | 10% | 3.3% | 15% | -1% | 5% | x | x
> Cc1cccc(OCCOCCSc2ncccn2)c1
    1% | -7% | -11% | -1% | 30% | -3% | u | u
> N#CCCN1CCN(C(CNS(=O)(=O)c2ccc(Cl)cc2)c2ccccc2)CC1 (stereo not given)
    -1% | -13% | 0.8% | 22% | 0% | -2% | -7% | -9%
> CC(C)c1ccc(C(C(=O)NC2CCCC2)N(C(=O)c2csnn2)C2CC2)cc1 (stereo not given)
    x | 7% | x | -5% | 14% | 0% | u | -10%
> COc1ccccc1N1CCN(/N=C/c2cc(OC)c(OC)c(OC)c2)CC1
    u | u | -2.1% | -34% | -23% | 9% | -1% | -2%
> CC(C)=CC(=O)Nc1ccc2c(c1)OCO2
    -1% | -4% | 3.8% | -10% | -3% | x | -21% | u
> O=C(Nc1ccc(Cl)cc1Cl)C1CCCO1 (stereo not given)
    x | 10% | x | -15% | 15% | -8% | u | u
> CSc1nc2nc(C)c(C/C=C/c3ccccc3)c(=O)n2[nH]1
    x | -5% | x | 9% | 6% | 0% | -1%[46.1 µM] | 3%
> COc1cccc(C(=O)/C=C/Nc2ccc(NC(C)=O)cc2)c1
    0% | -19% | -6.3% | -14% | -20% | -1% | -23% | u
> O=C(COc1ccc(F)cc1Br)NCc1ccccn1
    8% | -20% | 1.6% | 13% | 48%[activator] | x | 3% | 11%
> CCCCCCCC/C=C\CCCCCCCC(=O)NCCO
    u | -11% | -13%&4.8%&-1.9% | -8%[18.4 µM] | -13%&-11%&-2% | x | u | 3%
> Cc1[nH]c2c(ccc3ccccc32)c1C1C(CCN)C1(C)C (stereo not given)
    10µM* | 3% | -2.2% | 4% | u | -7% | 26µM* | u
> O=C(Nc1ccccc1)c1c(F)cccc1F
    -1% | u | 2.0% | 1% | x | 2% | 19% | 13%
> Cc1cccc(-n2c(-c3ccccc3)c[nH]c2=S)c1C
    x | 11% | x | -4% | 1% | 5% | 2%[46.1 µM] | -16%
> C1CCc2c(nc3nnnn3c2NC2CCCC2)C1
    -8% | 8% | 4.4% | 25% | -25% | 6% | 3% | 7%
> S=c1[nH]nc(-c2cccnc2)n1-c1ccc2c(c1)OCCO2
    x | 10% | x | -15% | 26% | 0% | 15%[46.1 µM] | 9%
> O=C(c1ccco1)N1CCN(C(=O)C2Cc3ccccc3CN2S(=O)(=O)c2ccc(F)cc2)CC1 (stereo not given)
    u | -6% | -1.7% | -4% | -9% | -3% | 15%&15% | 5%
> O=C(CN1C(=O)c2cccc3cccc1c23)N1CCc2ccccc2C1
    -48% | -21% | -6.4% | -2% | -18% | 0% | -14% | -20%
> Cc1nn(-c2cccc(C(=O)O)c2)c(C)c1[N+](=O)[O-]
    x | x | x | 13% | -2% | -3% | 0%[46.1 µM] | 16%
> COc1ccccc1N(CC(=O)N/N=C/c1ccc(C(=O)O)cc1)S(=O)(=O)c1ccc(C)cc1
    x | 6% | x | 13% | -18% | 2% | x | x
> Cc1cccc(Nc2nc(N)nc(N)c2N=O)c1
    x | x | x | -10% | -16% | x | u | -14%[46.1 µM]
> O=C(COC(=O)c1cccnc1Nc1ccccc1F)NCc1ccc2c(c1)OCO2
    -20% | -3% | 1.8% | -12% | 44%[activator] | 3% | 0% | -27%
> CCN(CC(=O)Nc1c(F)cccc1F)C(=O)/C=C/c1ccc(OCC#N)c(OC)c1
    x | x | x | 0% | -8% | x | -18% | 5%
> COCCCN1C(=O)C(O)=C(C(=O)c2ccco2)C1c1ccc(Br)cc1 (stereo not given)
    3% | -54% | -3.6% | -2% | -21% | 3% | -1%&-1% | 6%
> CC(C)c1ccc(NC(=O)C2CCN(c3nc(-c4ccc(C(C)C)cc4)no3)CC2)cc1
    -6% | x | 0.8% | x | u | x | x | -9%[46.1 µM]
> CCCCNS(=O)(=O)c1ccc(NC(=O)Cc2ccccc2[N+](=O)[O-])cc1
    x | 1% | x | -2% | 39%[activator] | 0% | 4%[46.1 µM] | 1%
> CCc1cccc(CC)c1NC(=O)c1ccccc1CCc1ccccc1
    u | -15% | 3.2% | -4% | -11% | -6% | u | -4%
> Cc1cc(C)nc(-n2nc(C)cc2NC(=O)COC(=O)CCC(=O)c2cccs2)n1
    30% | -3% | 6.8% | 3% | -12% | 9% | 7% | 15%

More records follow.
Below each SMILES: Cruzain noTriton | NS1 function inh | Cruzain Triton | RE007 growth inh | StopGo reporter | SARS PLpro yeast | MARV entry inh | Lassa entry inh
> Cc1nc(C(=O)NCCO)cc2c1[nH]c1ccccc12
    x | 5% | x | 6% | 14% | 1% | x | x
> COc1ccc(OCCCC(=O)OC(C)C(=O)Nc2ccc(NC(C)=O)cc2)cc1 (stereo not given)
    x | 0% | x | 1% | -21% | -4% | 11% | 19%
> COC(=O)c1ccccc1NC(=O)Cn1c(=O)n(CCCC(=O)NCc2ccccc2OC)c(=O)c2ccccc21
    -8% | x | -2.2% | x | -30% | x | -20%[46.1 µM] | -8%[46.1 µM]
> CC(C)(C)NC(=O)c1cnn(-c2ccccc2)c1NC(=O)c1ccccc1
    -2% | -2% | 4.6% | -14% | x | -11% | -3% | 8%
> O=C(COC(=O)c1ccc[nH]c1=O)Nc1ccc2c(c1)OC(F)(F)O2
    x | 0% | x | 61% | 5% | 0% | 0%[46.1 µM] | u
> CC(C)(C)CN1CCN(CC#Cc2ccccc2)CC1CCO (stereo not given)
    x | 22% | x | -12% | 30% | 7% | x | x
> COc1ccc(-n2c(C)c(C)c3c(NCCO)ncnc32)cc1
    x | 0% | x | -13% | 42%[activator] | 0% | u | u
> O=S(=O)(Nc1ccc(F)c(Cl)c1)c1ccc(Br)s1
    -12% | x | -16% | x | 34%[activator] | x | -4%[46.1 µM] | 9%[46.1 µM]
> CCOc1ccc(NC(=O)CNC(=O)c2ccco2)cc1
    x | 2% | x | 7% | 57%[activator] | -6% | x | x
> Cc1ccccc1OCCC(=O)OCC(=O)Nc1c(F)cccc1F
    x | x | x | 13% | -3% | 0% | 23% | u
> COc1ccccc1NC(=O)Nc1ccnn1C1CCN(C(=O)c2cscn2)CC1
    x | -13% | x | 16% | 42%[activator] | 1% | x | x
> CCOC(=O)c1[nH]ncc1CN1CCCC(C(=O)c2ccc(SC)cc2)C1 (stereo not given)
    x | 7% | x | -21% | -17% | -1% | -8%[46.1 µM] | 6%[46.1 µM]
> CCn1c(SCc2nc(-c3ccccc3)no2)nnc1-c1ccco1
    6% | -12% | -3.1% | 17% | -3% | -9% | 11% | -2%
> CCc1ccc(OCC(=O)Nc2cc3oc4ccccc4c3cc2OC)c(Br)c1
    2% | x | 0.0% | x | -11% | x | u | -4%[46.1 µM]
> N#CC1=C(SCC(N)=O)NC2=C(C(=O)c3ccccc32)C1c1ccc(Cl)cc1 (stereo not given)
    -29% | 12% | 2.5% | -2% | -15% | 7% | u | -30%
> O=[N+]([O-])c1cccc2c(Br)[nH]nc12
    -10%&-3%&7% | -19% | -3.4%&-4.2%&-4.7% | x | -19%[97.4 µM] | x | u | -2%
> O=c1c2c3nc4ccccc4nc3n(/N=C/c3cccs3)c2ncn1-c1ccccc1
    0% | 2% | 0.8% | x | x | -9% | x | x
> CCc1ccc(CNC(=O)CCc2c(C)nn(-c3ccc(N4CCCCC4)nn3)c2C)cc1
    15% | x | -3.2% | x | 16% | x | x | u
> CC12CC1(C)C(=O)N(c1cc(Cl)cc(Cl)c1)C2=O (stereo not given)
    -3% | x | 2.2% | -8% | -22% | x | x | x
> O=C(CNC(=O)c1ccncc1)N/N=C/c1cc(Br)ccc1O
    -10% | 0% | -6.1% | 1% | -1% | -24% | 0% | 2%
> COc1ccccc1NC(=O)Nc1nc(CC(=O)N2CCN(c3ccccc3OC)CC2)cs1
    x | x | x | 28% | 28µM* | -1% | u | u
> COc1ccc(CCCc2n[nH]c(=S)o2)c(C)c1
    x | -2% | x | -2% | 3% | -1% | x | x
> COc1ccc(CCNC(=O)[C@@H](NC(=O)N2CC(=O)Nc3ccccc32)C(C)C)cc1OC
    x | -8% | x | 11% | -5% | -1% | x | x
> O=C(Nc1cccc(F)c1)C1CCN(S(=O)(=O)c2cccc3nsnc23)CC1
    -8% | x | -7.0% | x | -25% | x | u | u
> C=CCNC(=O)CN1CCC(O)(c2ccccc2)CC1
    13% | 1% | 3.4% | -8% | x | 1% | 8% | u
> Cc1cccc(NS(=O)(=O)c2ccc(C(=O)NCC3CCCO3)cc2)c1C (stereo not given)
    x | -4% | x | -9% | -24% | -5% | x | x
> CN(C)CCCNC(NC(=O)/C=C/c1ccccc1)C(Cl)(Cl)Cl (stereo not given)
    x | 3% | x | -6% | -4% | 0% | 1%[46.1 µM] | -4%
> CCC(=O)N1CCc2cc(S(=O)(=O)NC(C(=O)N3CCc4ccccc4C3)C(C)C)ccc21 (stereo not given)
    9% | -10% | 3.5% | 2%[3.69 µM] | -12% | -14% | u | -7%
> O=C(CN1CCCC1)Nc1cc(C(F)(F)F)cc(C(F)(F)F)c1
    x | -5% | x | -11% | -7% | -3% | 2%[46.1 µM] | u
> Cc1cc(C)c(NC(=O)Cc2ccc(-n3c(C)nc4cccnc43)cc2)c(C)c1
    -4% | x | -6.9% | x | u | x | x | -2%[46.1 µM]
> Cc1ccccc1C(=O)Nc1nnc(-c2ccncc2)o1
    x | -2% | x | -7% | 33%[activator] | -1% | 0%&0% | u
